# Screens: PubChem BioAssay, Broad Institute
# ALR H2O2 inh: inhibitors of human sulfhydryl oxidase ALR; inhibition, % (no concentration beside the values); P55789; 290,000 tested, 3.8% active; purified ALR, DTT oxidation, H2O2 HRP-luminol luminescence;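 active = mean and each replicate at 75% or more; inconclusive = only one of the two met; inactive = neither met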;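 note: stock transfer was 7.5 nL into about 7.5 µL; 0% = neutral wells and 100% = wells with inactivated enzyme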
# Target sequence (P55789 whole entry, looked up): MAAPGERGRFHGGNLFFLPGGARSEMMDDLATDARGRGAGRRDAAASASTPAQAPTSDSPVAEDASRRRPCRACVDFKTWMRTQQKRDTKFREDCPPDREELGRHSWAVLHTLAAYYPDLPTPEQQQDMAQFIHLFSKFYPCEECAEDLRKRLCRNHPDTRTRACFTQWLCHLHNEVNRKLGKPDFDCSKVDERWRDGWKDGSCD
# MLL AF4-AF9 inh: blocks AF4 peptide binding to human AF9 | P42568 | inhibition, % at 10 µM | AlphaScreen, biotin-AF4 peptide binding to FLAG-AF9 | 350,000 tested, 0.47% active;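 active = every replicate reaching a set inhibition limit, whatever the replicate mean, cut at about 25% in these data; inconclusive = mean inhibition reaches that limit but some replicates miss it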;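 note: 0% = plate neutral control median and 100% = total signal loss; the record names both 10 and 1 µM as test concentration; the first replicate is given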
# Target sequence (P42568 whole entry, looked up): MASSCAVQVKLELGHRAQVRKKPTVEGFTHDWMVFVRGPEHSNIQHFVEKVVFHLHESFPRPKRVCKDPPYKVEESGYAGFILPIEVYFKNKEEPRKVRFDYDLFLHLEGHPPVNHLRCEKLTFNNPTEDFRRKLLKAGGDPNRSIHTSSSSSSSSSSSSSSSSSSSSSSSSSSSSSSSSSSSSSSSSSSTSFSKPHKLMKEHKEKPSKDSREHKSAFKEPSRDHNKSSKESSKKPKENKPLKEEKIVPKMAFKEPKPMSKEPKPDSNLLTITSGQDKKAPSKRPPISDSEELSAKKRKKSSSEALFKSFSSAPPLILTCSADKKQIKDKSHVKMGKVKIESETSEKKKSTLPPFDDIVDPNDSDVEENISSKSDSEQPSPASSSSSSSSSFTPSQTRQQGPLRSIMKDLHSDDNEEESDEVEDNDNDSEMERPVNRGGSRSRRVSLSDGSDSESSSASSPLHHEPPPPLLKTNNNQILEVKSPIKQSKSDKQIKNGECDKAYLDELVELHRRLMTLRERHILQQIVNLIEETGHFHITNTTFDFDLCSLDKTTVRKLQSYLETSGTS
# rRNA inh HTS: inhibitors of bacterial rRNA selective over humanized ribosomes; E. coli WT GFP vs humanized-ribosome RFP mutants, fluorescence, 24 h; hits give low values; DMSO median 0, no signal -100; GFP signal change (wild-type ribosome), % (concentration not given with the values); 350,000 tested, 1.6% active; AID 720706;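 active = significant combined selectivity score with lowered wild-type GFP, culture density cut under 30%, mutant RFP and density less affected; inactive = any of these conditions unmet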; note: one replicate is shown; some compounds called inactive have numbers as strong as hits
# Calb FLC: C. albicans growth modulation with fluconazole; C. albicans CaCi-2 (fluconazole-resistant clinical isolate) + fluconazole, Alamar Blue growth, 48 h; AID 1979; growth inhibition, % (concentration not given with the values); 300,000 tested, 0.57% active;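 active = most replicates above 75%; inconclusive = exactly half above 75%; inactive = most below 75%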;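 note: all wells also contain fluconazole at 8 µg/ml as a sub-toxic cotreatment; 0% = median of DMSO wells and 100% = median of geldanamycin control wells; wells of about 8 µL received 7.5 nL stock; the first replicate is given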
# T cruzi inh: T. cruzi replication inhibition. T. cruzi beta-gal in NIH3T3, luminescence, 90 h. inhibition, % (test concentration not listed). 300,000 tested, 1.4% active;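 active = mean inhibition across valid replicates above about 55%, limit read from the data; inconclusive = mean below that limit but half or more replicates reach it; inactive = mean below it, under half of replicates reach it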;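 note: signal also drops with host cell toxicity which is not excluded here; 0% = plate median of DMSO wells and 100% = zero luminescence signal; higher percent means less beta-gal luminescence so fewer parasites; stock transfer was 50 nL into about 50 µL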
# RanGTP-Imp inh: inhibitors of RanGTP-importin-beta interaction, primary screen, biochemical, FRET, CFP-Ran, YFP-importin-beta, homogeneous; cell-free CFP-Ran/YFP-importin-beta FRET ratio; inhibition, % (concentration not given with the values); 300,000 tested, 1.1% active;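 active = most replicates above 15%; inconclusive = exactly half above 15%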;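 note: 0% = DMSO wells and 100% = Ran loaded with GDP instead of GTP; wells of about 40 µL received 100 nL stock; the first replicate is given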
# FGF22 binding: FGF22 (human) thermal shift binding. 340,000 tested, 1.5% active. calls only at 9.99 µM. recombinant FGF22 thermal shift, SYPRO orange fluorescence; percent of sucrose octasulfate shift, DMSO zero;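 active = melting point raised past a set limit in the mean and every replicate; inconclusive = no clear call; three in four hits are not shown here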
# Target sequence (Q9HCT0 whole entry, looked up): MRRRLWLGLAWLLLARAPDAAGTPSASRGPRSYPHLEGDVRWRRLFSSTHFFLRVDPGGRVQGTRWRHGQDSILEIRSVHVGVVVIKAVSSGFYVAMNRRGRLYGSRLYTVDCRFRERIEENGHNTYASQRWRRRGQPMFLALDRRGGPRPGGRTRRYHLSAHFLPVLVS
# Beta cell apopt: beta cell apoptosis inhibition. 300,000 tested, 0.8% active. INS-1E cytokine-induced death, ATP luminescence, 48 h; percent of positive-control rescue, neutral wells zero. AID 435005. protection from apoptosis, % (concentration not given with the values);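 active = all replicates at 75% or more, or half of them and the mean; inconclusive = half reach 75% but not the mean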;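 note: 0% = cytokine-treated negative control wells and 100% = positive control rescue; higher means more ATP so stronger rescue from cytokine killing; wells of about 40 µL received 100 nL stock; the first replicate is given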
# rRNA inh HTS OD600: also measured in rRNA inh HTS; calls as there; OD600 change, %; measured here: OD600 growth;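 optical density of the mix in the first replicate; 0 = DMSO median and -100 = no signal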
# rRNA inh HTS RFP: second read-out of rRNA inh HTS, no call of its own (marks repeat the call); RFP signal change, %; measured here: RFP humanized mutant strains;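 first replicate; 0 = DMSO median and -100 = no signal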
# An asterisk follows results filed as active; i = inactive; ? = inconclusive; · = not tested or not shown.
# Values in the order – ALR H2O2 inh	MLL AF4-AF9 inh	rRNA inh HTS	rRNA inh HTS OD600	rRNA inh HTS RFP	Calb FLC	T cruzi inh	RanGTP-Imp inh	FGF22 binding	Beta cell apopt
Cc1ccc(C)c(NC(=O)CCN2CCCC(C)C2)c1 (stereo not drawn)
  -7	-1.7	2	-5	-2.0	-6	10	6.9	i	-1
COc1ccc(CNC(=O)c2ccc3c(=O)n(-c4ccccc4)c(=O)[nH]c3c2)cc1
  -1	·	·	·	·	-7	-7	-1.2	·	-8
O=C(NCCC1=CCCCC1)C1CCCN(S(=O)(=O)c2ccc(F)cc2)C1 (stereo not drawn)
  1	·	10	10	0.7	-7	-11	-1.7	·	-1
O=c1[nH][nH]c2ccccc2c1=O
  -6	·	11	-12	-2.6	-3	-12	0.0	i	0
O=C(NCc1ccc(F)cc1)C(=O)Nc1nc(C23CC4CC(CC(C4)C2)C3)cs1
  -2	-0.1	11	13	-1.2	3	25	4.9	i	31
COc1ccc(CSCC(=O)Nc2ccc(S(=O)(=O)N3CCCCCC3)cc2)cc1
  ·	·	·	·	·	-1	-12	-1.2	·	-5
CC(C)c1c(O)nc(SCC(=O)N2CCCCC2)[nH]c1=O
  53	-2.7	24	26	3.4	-2	0	4.5	i	-2
Cc1ccc(NC(=O)CSc2ccc3nnc(-c4ccccn4)n3n2)cc1
  -3	-1.5	-3	-4	2.9	1	-4	-1.9	i	-3
O=C(N/N=C/c1ccc2c(c1)OCO2)c1cccc2ccccc12
  ·	-1.7	5	8	-0.4	-7	-11	-2.7	·	-4
CCOc1ccc(N(CC(=O)NCc2ccco2)C(=O)CCC(=O)Nc2ccccn2)cc1
  ·	-1.6	-1	-1	-2.3	25	-2	-7.6	i	·
C(=N\N(Cc1ccccc1)c1ccccc1)/c1cccnc1
  -17	-1.1	-52	-72	-32	3	24	5.0	i	0
COC(=O)c1ccccc1N=Nc1c(N)[nH][nH]c1=O
  4	2.9	2	4	-1.8	-3	9	-4.2	i	-7
Cc1cc(-c2ccccc2C(=O)NC2CCCCC2)on1
  ·	-0.9	·	·	·	0	-2	3.0	i	1
COc1ccc(CC(=O)N(Cc2ccccc2)c2ccc(C)cc2)cc1S(=O)(=O)N1CCOCC1
  8	6.3	-8	-28	16	1	?	?	i	-6
CCC(=O)Nc1cccc(NC(=O)c2ccc(Br)cc2)c1
  -4	-6.8	1	3	-1.3	-13	-13	1.6	i	6
CCC(CC)C(=O)c1c[nH]c(C(=O)NCc2ccccc2OC)c1
  -4	-3.2	5	-3	-2.2	1	7	?	i	-7
CC1CCN(S(=O)(=O)c2ccc(C(=O)OCc3ccc4c(c3)OCO4)cc2)CC1
  -3	·	·	·	·	-23	-9	-2.2	·	2
CCOc1ccc(NC2=C(OC)C(=O)c3ccccc3C2=O)cc1
  -2	·	·	·	·	1	-14	1.4	·	12
O=P(c1ccccc1)(c1ccccc1)C(c1ccccn1)P(=O)(c1ccccc1)c1ccccc1
  ·	-2.8	-1	-9	-0.6	-3	-19	4.5	i	-4
Cn1cccc1C(=O)OCC(=O)NC1CCS(=O)(=O)C1 (stereo not drawn)
  -2	-1.5	8	12	-1.7	6	-8	-4.0	i	-6

# (list continues)
# Values in the order – ALR H2O2 inh	MLL AF4-AF9 inh	rRNA inh HTS	rRNA inh HTS OD600	rRNA inh HTS RFP	Calb FLC	T cruzi inh	RanGTP-Imp inh	FGF22 binding	Beta cell apopt
Nc1ncnc2c1ncn2[C@@H]1O[C@H](CN2CCCS2(=O)=O)[C@@H](O)[C@H]1O
  ·	-3.3	3	5	-1.6	·	·	·	i	-9
Cc1cccc(NCc2ccc(N(C)C)cc2)n1
  82*	8.0	10	6	0.5	-10	3	-2.3	i	·
COC(=O)NC(=S)Nc1ccc(Oc2ccc(Cl)cc2Cl)c(Cl)c1
  2	·	·	·	·	-6	62*	-1.9	·	3
COC(=O)c1ccc(CSCc2ccc(C#N)cc2)cc1
  3	·	·	·	·	-8	-16	1.7	·	1
O=C(C1CCCN(c2ncnc3c2nc2n3CCCCC2)C1)N1CCN(c2cccc(Cl)c2)CC1 (stereo not drawn)
  -13	5.0	-31	-36	-6.7	54	22	1.8	i	13
CC1Oc2ccccc2N(CC(=O)NCc2ccccc2)C1=O (stereo not drawn)
  ·	-1.6	8	-2	-0.1	4	-12	8.6	·	4
CCOC(=O)c1c(C)[nH]c(C(=O)N2CCN(CC)CC2)c1C
  -2	-6.5	12	9	-1.0	5	-2	3.7	i	-2
Cc1cc(N2C(=O)C3CC=CC(C)C3C2=O)no1 (stereo not drawn)
  -5	·	·	·	·	-3	-8	2.2	·	-7
CCOC(=O)N1CCN(CC(O)COc2c(C)cccc2C)CC1 (stereo not drawn)
  0	·	·	·	·	10	-27	-0.6	·	-3
COc1cccc(CCC(=O)Nc2cc3c(cc2C(=O)O)OCCCO3)c1OC
  7	0.8	-18	-10	-2.0	·	·	·	i	-4
O=C(c1ccco1)N1CCN(C23CC4CC(CC(C4)C2)C3)CC1
  -1	-0.5	9	-2	-2.6	-18	5	3.2	i	2
O=C(CSc1ccc2c(c1)OCCO2)Nc1cccnc1Cl
  -5	-1.4	11	13	3.3	-3	-5	3.7	·	-4
FC(F)(F)c1ccc(-c2csc(-c3ccno3)n2)cc1
  -17	-4.4	4	-7	24	2	-14	7.3	i	-2
CSc1ccc(-c2nc(CSCC(=O)NCCCN3CCOCC3)c(C)o2)cc1
  ·	·	·	·	·	-9	-3	-2.4	·	-4
Cc1ccc(NC(=O)c2sc3nc(C)nc(N4CCN(c5ccccn5)CC4)c3c2C)c(C)c1
  ·	0.0	0	-3	4.9	-12	38	6.9	i	8
CS(=O)(=O)c1ccc(C(=O)NCC2(N3CCCCC3)CCCCC2)cc1
  -9	·	·	·	·	-9	-18	4.5	·	-3
CC(C)CCC(C)N=Cc1c(O)n(Cc2ccccc2)c(=O)c2ccccc12 (stereo not drawn)
  1	·	·	·	·	23	39	4.8	·	0
CCOC(=O)CSc1n[nH]c(NC(=O)c2ccccc2)n1
  13	-4.0	9	7	-3.3	1	-17	-1.5	i	-11
O=[N+]([O-])c1ccc(N=Cc2ccc(Br)c([N+](=O)[O-])c2)cc1
  0	7.3	4	21	0.1	3	2	-2.2	i	-4
Cc1ccc2oc(=O)c3cc(C(=O)NCCCN4CC(C)CC(C)C4)sc3c2c1 (stereo not drawn)
  -12	5.1	1	5	-0.5	-5	15	0.1	i	6

# The list goes on.
# Values in the order – ALR H2O2 inh	MLL AF4-AF9 inh	rRNA inh HTS	rRNA inh HTS OD600	rRNA inh HTS RFP	Calb FLC	T cruzi inh	RanGTP-Imp inh	FGF22 binding	Beta cell apopt
COCCn1cnnc1SCC(=O)Nc1cc(OC)c([N+](=O)[O-])cc1C
  -19	-0.9	14	13	0.2	114*	18	7.0	·	2
Cc1nc(N2CCC3(CC2)OCCO3)c2nnn(Cc3ccccc3F)c2n1
  -2	·	·	·	·	-1	22	5.7	·	10
COc1ccc(NC(=O)C(=O)c2cn(CC(=O)N3CCCC3)c3ccccc23)cc1
  -23	8.6	5	2	0.2	-24	5	-2.9	i	9
O=C(Cc1cccs1)N=Nc1c(O)[nH]c2ccc(Br)cc12
  3	1.1	1	5	0.0	-3	8	6.1	i	-6
COc1cc(C2=NOC(C(=O)NCc3ccc(F)cc3)C2)cc(OC)c1OC (stereo not drawn)
  -2	·	·	·	·	5	-5	1.0	·	22
Clc1ccc(C[n+]2cc(-c3ccccc3)n3c2CCC3)cc1Cl
  -1	-3.6	·	·	·	-38	59*	-3.1	i	17
C=CCn1c(=NC(=O)c2ccco2)sc2cc(C(=O)OC)ccc21
  ·	0.8	6	3	14	25	-4	0.3	i	7
O=C(O)C1CCN(S(=O)(=O)c2cccc3cccnc23)CC1
  -6	1.4	4	13	-0.6	-16	-2	0.8	i	-1
Cc1ccccc1C(=O)c1cccn1CC(=O)NC(C)c1ccc2c(c1)OCCO2 (stereo not drawn)
  -18	0.9	-18	-24	2.5	-9	-10	-1.4	i	3
O=C1CCCC2=C1C(c1ccncc1)n1c(nc3ccccc31)N2 (stereo not drawn)
  0	-1.5	14	-3	2.1	1	5	2.4	i	-19
COc1ccc2[nH]c(=O)c(CN(C(=O)c3cccnc3)c3ccc(C)c(C)c3)cc2c1
  ·	6.4	7	-4	-7.0	8	-4	2.7	i	-3
O=C(c1ccc(F)cc1Cl)N1CCN(CCc2ccccc2)CC1
  1	-4.0	3	-18	2.6	-9	5	?	i	3
C=CCn1c(=N)n(CC(=O)c2ccccc2)c2ccccc21
  ·	-2.5	-26	-30	-3.3	17	-3	3.2	i	4
COc1ccc(-c2csc(NC(=S)NC(=O)/C=C/c3ccco3)n2)cc1Br
  -1	-2.5	-41*	-19*	6.6*	2	20	-4.0	i	8

# An excerpt of the results above, as a working copy:
# Values in the order – ALR H2O2 inh	MLL AF4-AF9 inh	rRNA inh HTS	rRNA inh HTS OD600	rRNA inh HTS RFP	Calb FLC	T cruzi inh	RanGTP-Imp inh	FGF22 binding	Beta cell apopt
Cc1nc(N2CCC3(CC2)OCCO3)c2nnn(Cc3ccccc3F)c2n1
  -2	·	·	·	·	-1	22	5.7	·	10
COc1ccc(NC(=O)C(=O)c2cn(CC(=O)N3CCCC3)c3ccccc23)cc1
  -23	8.6	5	2	0.2	-24	5	-2.9	i	9
O=C(Cc1cccs1)N=Nc1c(O)[nH]c2ccc(Br)cc12
  3	1.1	1	5	0.0	-3	8	6.1	i	-6
COc1cc(C2=NOC(C(=O)NCc3ccc(F)cc3)C2)cc(OC)c1OC (stereo not drawn)
  -2	·	·	·	·	5	-5	1.0	·	22
Clc1ccc(C[n+]2cc(-c3ccccc3)n3c2CCC3)cc1Cl
  -1	-3.6	·	·	·	-38	59*	-3.1	i	17
C=CCn1c(=NC(=O)c2ccco2)sc2cc(C(=O)OC)ccc21
  ·	0.8	6	3	14	25	-4	0.3	i	7
O=C(O)C1CCN(S(=O)(=O)c2cccc3cccnc23)CC1
  -6	1.4	4	13	-0.6	-16	-2	0.8	i	-1
Cc1ccccc1C(=O)c1cccn1CC(=O)NC(C)c1ccc2c(c1)OCCO2 (stereo not drawn)
  -18	0.9	-18	-24	2.5	-9	-10	-1.4	i	3
O=C1CCCC2=C1C(c1ccncc1)n1c(nc3ccccc31)N2 (stereo not drawn)
  0	-1.5	14	-3	2.1	1	5	2.4	i	-19
COc1ccc2[nH]c(=O)c(CN(C(=O)c3cccnc3)c3ccc(C)c(C)c3)cc2c1
  ·	6.4	7	-4	-7.0	8	-4	2.7	i	-3
O=C(c1ccc(F)cc1Cl)N1CCN(CCc2ccccc2)CC1
  1	-4.0	3	-18	2.6	-9	5	?	i	3
C=CCn1c(=N)n(CC(=O)c2ccccc2)c2ccccc21
  ·	-2.5	-26	-30	-3.3	17	-3	3.2	i	4
COc1ccc(-c2csc(NC(=S)NC(=O)/C=C/c3ccco3)n2)cc1Br
  -1	-2.5	-41*	-19*	6.6*	2	20	-4.0	i	8

# This is a subset; count on the stated rates, not on these rows.
